# Screens: PubChem BioAssay, ICCB-Longwood Screening Facility, Harvard Medical School
# Sa helicase inh = blocks Staphylococcus aureus DNA helicase; purified S. aureus helicase, fluorescence unwinding assay; about half of the hits fall short of the stated cut; inhibition, %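 (tested at about 80 µM)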; 0.05% of 120,000 active; AID 485395;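 active = both duplicates at 50% or more, or one of them with a favoured structure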;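 note: 0% = mean of negative control wells and 100% = mean of positive control wells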
# MgrA DNA FP = S. aureus MgrA-DNA binding modulation | fluorescence polarization | inhibition, %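 (about 10 µg/mL by stock and volumes)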 | 0.13% of 84,000 active;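 active = above 50% in either of two replicates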;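 note: 0% = protein plus DNA without compound and 100% = DNA alone without protein; higher means less MgrA bound to DNA so lower polarization; one replicate is shown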
# An asterisk follows results filed as active; · = no result given; & = joins results of further samples.
Sa helicase inh	MgrA DNA FP	SMILES
8	1.0	Cc1nc(N2CCC(C)CC2)c2c(C)c(C(=O)N3CCN(c4ccc(F)cc4)CC3)sc2n1
·	0.7	CC(=O)CC(=O)[C@@]1(O)CC[C@H]2[C@@H]3C=C(C)C4=CC(=O)CC[C@@H]4[C@H]3CC[C@@]21C
-15	-1.2	O=C(NC1CCS(=O)(=O)C1)c1ccc(C(=O)c2ccccc2)cc1 (stereo not given)
11	·	O=C(CN1CCOCC1)N1N=C(c2ccc(Cl)cc2)CC1c1ccco1 (stereo not given)
7	-0.8	O=C(Nc1ccccc1)OCC1(c2ccccc2)C(=O)c2ccccc2C1=O
·	-1.5	CCOC(=O)CC1=Nn2c(nnc2-c2cccs2)SC1
-6	-2.2	CN(C)c1ccc(C(=O)OCC(=O)NC2CC2)cc1
6	2.0	O=C(Nc1ccncc1)c1ccccc1O
9	·	CS(=O)(=O)N1CCC(C(=O)NC2CCCCCCC2)CC1
8	·	O=C(O)CNc1ncnc2ccccc12
·	-3.7	COC(=O)c1ccc(C#CC(C)(C)O)cc1
17	-1.5	CC(C)(C)C(=O)Nc1cccc(C(=O)NN)c1
0	·	Cc1nnc(SCC(=O)Nc2sc3c(c2C(N)=O)CCC(C)C3)[nH]c1=O (stereo not given)
6	-1.1	CC1(C)CC(NC(=O)COc2ccc(Cl)cc2Cl)CC(C)(C)N1
10	-1.3	CC(C)N(C(=O)CSc1nc2ccccc2c(=O)[nH]1)C(C)C
-3	·	O=C(NCc1cccnc1)c1cccc2ccccc12
5	6.7	CC1=NN(c2ccc(S(N)(=O)=O)cc2)C(=O)/C1=C\C=C/c1ccccc1
6	·	COC(=O)CCC(=O)c1cc2ccccc2o1
·	3.3	Cc1ccc(C)n1-c1ccc(/C=N/Nc2cc(C(F)(F)F)cc(C(F)(F)F)c2)cc1
3	-0.9	O=c1[nH]nc(-c2ccccc2)c2cc3c(=O)[nH]nc(-c4ccccc4)c3cc12
11	·	O=C(Oc1ccc(C=Nc2cccc(Br)c2)cc1)c1ccncc1
·	-0.7	O=C(c1cnn2c1NC(c1ccc3c(c1)OCO3)CC2C(F)(F)F)N1CCN(C(c2ccccc2)c2ccccc2)CC1 (stereo not given)
-21	·	c1ccc(-n2ncc3c(N4CCN(c5ncccn5)CC4)ncnc32)cc1
20	·	O=C(Nc1nc(-c2ccc3c(c2)OCO3)cs1)c1cc2ccccc2o1
-9	-0.1	CCN(c1ccccc1)c1nc2ccsc2c(=O)s1
9	0.1	CCOC(=O)c1c(C)nn(Cc2cccc(Cl)c2)c1N
·	0.2	O=S(=O)(Cc1noc(-c2cccs2)n1)c1ccc(F)cc1
·	-0.8&1.1	CCN(CC)CCCC(C)Nc1ccnc2cc(Cl)ccc12 (stereo not given)
·	-3.0	Cc1nc(C)c(S(=O)(=O)NCc2ccc(-c3cccs3)cc2)s1
-11	·	COc1ccc(OC)c(/C=C/C(=O)O)c1
5	-2.0	CSc1nnc(COc2cccc(C)c2)n1C
21	14	CSc1ccc(CNc2ccc(S(N)(=O)=O)cc2)cc1
8	1.4	CC(=O)Nc1ccc(/C=C2/SC(=Nc3ccccc3)NC2=O)cc1
-9	·	CCN(CC)S(=O)(=O)c1ccc(NC(=O)CN2c3ccccc3CC2C)cc1 (stereo not given)
23	·	CC(=O)Nc1sc2c(c1C(c1cccnc1)N1CCN(C)CC1)CCCC2 (stereo not given)
1	-0.9	N#Cc1ccc(OCC(=O)NCCCn2ccnc2)cc1
13	-0.6	COc1ccc(C(=O)CSc2nc(-c3ccco3)nc3c2c(=O)n(C)c(=O)n3C)cc1
-34	·	O=C(Nc1ccc(-c2nc3ncccc3o2)cc1)c1ccccc1Cl
-2	·	CCOC(=O)N1CCC(C(=O)OCCOc2cccc(Cl)c2)CC1
9	-0.4	COc1ccc(-c2n[nH]c3c2C(c2ccccc2)N(c2ccccc2)C3=O)cc1 (stereo not given)
2	2.5	O=C(C1=C(O)/C(=C/c2ccccc2)CCC1)C(F)(F)F
13	-0.3	COc1cc(OC)c(C2=NOC(C(=O)Nc3ncn(CC(=O)N4CCC(C)CC4)n3)C2)cc1Cl (stereo not given)
-1	0.3	COC(=O)C1C(=O)c2c([nH]c(C(=O)OC(C)C)c2C)CC1C (stereo not given)
-1	·	O=C(CC1CCCC1)N(c1nccs1)C1CCCCC1
-1	·	O=C(CSc1ccc2c(c1)OCCO2)Nc1ccccc1
-4	·	C/C(=N\N(C=O)c1ccc(C(=O)N2CCOCC2)cc1)C(=O)c1ccccc1
6	·	N#Cc1ccccc1NC(=O)COC(=O)c1ccc2c(c1)OCCO2
8	·	CC1(C)C2CC=C(COCC(O)CN3CCN(S(=O)(=O)c4ccccc4)CC3)C1C2 (stereo not given)
20	·	COc1cc2c(cc1OC)C1C(C(=O)N(C)C3CCCCC3)c3ccccc3C(=O)N1CC2 (stereo not given)
·	1.1	O=C(Cn1cnc2sc(-c3ccccc3)cc2c1=O)c1ccccc1
3	·	Cc1csc(C(C#N)C(=O)CSc2nc(-c3ccccc3)c(-c3ccccc3)o2)n1 (stereo not given)
0	·	CN(CC1COc2ccccc2O1)C(=O)/C=C/c1cccs1 (stereo not given)
·	0.4	COc1ccc(COC(=O)C2=C(C)NC3=C(C(=O)CC(C)(C)C3)C2c2coc3ccc(Cl)cc3c2=O)cc1 (stereo not given)
-11	·	Cc1ccc(S(=O)(=O)NCc2ccc(C(=O)N3CCN(c4ccccn4)CC3)cc2)cc1
12	-1.6	O=c1c2ccccc2n2c(-c3ccccc3)nnc2n1CCc1ccccc1
25	·	O=C(NCc1cccc(C(F)(F)F)c1)C1CCN(c2ncccn2)CC1
7	·	N#Cc1c(-c2ccccc2)nc(N2CCCCC2)[nH]c1=O
-20	·	COc1cccc(C2CC(=O)Nc3sc4c(C)c(C#N)c(N)nc4c32)c1 (stereo not given)
8	-1.0	CC1(C)C=C(NCC2CCCO2)CC(=O)C1 (stereo not given)
-8	1.3	C/C(=N\NC(N)=O)C1CC(CC(C)C)C(=O)O1 (stereo not given)

# One compound at a time, as listed above.
# Shown for `CC(=O)Nc1ccc(/C=C2/SC(=Nc3ccccc3)NC2=O)cc1` : Sa helicase inh: 8; MgrA DNA FP: 1.4
# Shown for `CCN(CC)S(=O)(=O)c1ccc(NC(=O)CN2c3ccccc3CC2C)cc1` (stereo not given) : Sa helicase inh: -9; MgrA DNA FP: ·

# Next part.
Sa helicase inh	MgrA DNA FP	SMILES
18	-4.7	Cc1nnc(SCC(=O)O)s1
-32	·	O=C(O)c1ccc(OC(F)(F)F)cc1
4	·	CCOc1ccc(/C=N/O)cc1
-11	·	CCCCn1c(N)c(N2CCOCC2)c(=O)n(CC(=O)Nc2ccc(S(=O)(=O)N(CC)CC)cc2)c1=O
-3	0.0	CC1(C)CC(=O)C2=C(C1)OC(N)=C(C#N)C21CCN(Cc2ccccc2)CC1
10	4.8	CSc1c[nH]n(-c2ccccc2)c(=O)c1=O
9	-1.9	CCC1=NN(C(=O)Cc2ccccc2)C(O)(c2ccccc2)C1 (stereo not given)
-1	1.8	Cc1cc(C)c2[nH]c(=O)c(C(c3nnnn3C(C)(C)C)N(CCc3ccc(F)cc3)Cc3ccco3)cc2c1 (stereo not given)
-1	1.0	c1ccc(CN2CCOCCN(Cc3ccccc3)CCOCC2)cc1
·	0.9	O=C(O)CCC(=O)N1N=C(c2c(-c3ccccc3)c3cc(Cl)ccc3[nH]c2=O)CC1c1ccccc1Cl (stereo not given)
7	·	CN(CC(=O)Nc1ccc(N2CCOCC2)cc1)C(=O)Cc1ccccc1
17	·	Cc1occc1C(=O)N(Cc1ccccc1)Cc1ccccc1
-16	·	COC(=O)C(O)(CC(=O)c1ccc(C(C)C)cc1)C(F)(F)F (stereo not given)
-1	-1.1	O=C(NCc1ccccc1)c1ccc(N2C(=O)Cn3c(cc4sccc43)C2=O)cc1
14	3.8	CCOC(=O)[C@H]1NC(=O)C[C@H]1c1ccccc1
8	·	CCN(CC)Cc1cc(C(C)C)c(O)c(C(C)C)c1
14	·	CCOc1ccc(-c2nnc(NC(=O)C3CCN(c4ncnc5sc(C)c(C)c45)CC3)o2)cc1
·	3.5	CN(C)CC/C=C1\c2ccccc2COc2ccccc21
·	-0.5	COc1ccc(Br)cc1/C=C1/SC(=Nc2ccccc2)NC1=O
6	·	Cc1cc(C(=O)NN)nn1-c1c(Cl)cc(Cl)cc1Cl
-1	-0.5	Cc1ccccc1-c1ocnc1C(=O)NCc1ccc(C(F)(F)F)cc1
-7	·	COc1ccc(C(=O)COC(=O)c2ccco2)cc1OC
13	·	CSc1sc(C(=O)NN=NC(C)C)c2c1C(O)CCC2 (stereo not given)
20	·	CCOC(=O)CNc1ncnc2nc[nH]c12
-7	·	Cc1nnc(SCC(=O)N2N=C3/C(=C/c4cccs4)CCCC3C2c2cccs2)n(N)c1=O (stereo not given)
·	6.9	CN(C)/C=C/c1ncc(C(F)(F)F)cc1Cl
15	2.5	CCc1cc2c(=O)c(-c3nc4ccccc4[nH]3)c(C)oc2cc1O
-17	·	CCOC(=O)Cn1c(C)cc(=O)c2cccc(OC)c21
0	·	Cc1cc(O)c(CN2CCN(S(=O)(=O)c3cccc(Br)c3)CC2)cc1C
0	2.0	Nc1nonc1-n1nnc(CO)c1CO
12	-1.3	COc1ccc(C(=O)Nc2nccs2)cc1OC
7	·	O=C(OCc1csc(-c2ccccc2)n1)C1Cc2ccccc2CN1S(=O)(=O)c1cccs1 (stereo not given)
-4	0.9	COc1cccc(NC(=O)CSc2nc3c([nH]c4ccccc43)c(=O)n2C)c1
-14	·	O=C(Cc1c[nH]c2ccccc12)OCC(=O)N1CCCc2ccccc21
12	·	O=C(Nc1ccc(F)cc1F)C1CC(=O)N(Cc2ccccc2)C1 (stereo not given)
2	·	c1ccc(-c2nnc(-c3cccnc3)nc2-c2ccccc2)cc1
-11	·	Cc1cc(C(=O)N/N=C2\CC(=O)c3ccccc32)c(C)o1
7	·	COC(CNC(=O)C1CCC(=O)N1Cc1ccc(C)cc1)OC (stereo not given)
8	0.6	CCOC(=O)c1nnn(-c2nonc2N)c1-c1cccc2ccccc12
·	-2.3	O=C(N1CCCc2ccccc21)C(F)(F)F
10	·	O=c1[nH]c(CSc2ncccn2)nc2ccccc12
-11	·	O=C(c1ccc(Cn2c(=S)[nH]c3ccc(N4CCOCC4)cc3c2=O)cc1)N1CCC(N2CCCCC2)CC1
-3	-5.4	COc1ccc(CC(=O)N2CCCc3ccccc32)cc1
6	11	CN=C1S/C(=C\c2ccc(N3Cc4ccccc4C3)cc2)C(=O)N1C
-23	·	CC1=C(C(=O)N(C)C)C(c2ccccc2C(F)(F)F)NC(=O)N1 (stereo not given)
·	-0.3	COc1cc(/C=C2/N=C(c3ccccc3I)OC2=O)cc(OC)c1OC
·	0.6	O=C(CN1CCN(c2ccc(C(F)(F)F)cn2)CC1)Nc1ccc2c(c1)OCO2
-12	0.3	Cc1ccc(Cn2c(CNC(=O)c3ccccc3)nc3ccccc32)cc1
3	53	O=C(O)CCc1ccco1
-14	·	Cc1ccc(S(=O)(=O)NC(CC(=O)O)c2ccc(F)cc2)cc1 (stereo not given)
-2	·	O=C(NCCC(=O)N1CCN(C(=O)c2cccs2)CC1)Nc1ccccc1
12	·	CC(=O)Nc1ccc(Oc2nc(-c3ccccc3F)nc3ccccc23)cc1
-4	·	CCOC(=O)N1CCC(=Nn2c(CC)n[nH]c2=S)CC1
-1	0.6	O=S(=O)(c1ccc(NC(=S)Nc2ccc3c(c2)OCO3)cc1)N1CCOCC1
3	·	CC1CCCCN1S(=O)(=O)c1cn(C)c(=O)n(C)c1=O (stereo not given)
10	·	O=C(CSc1nnc(CNC(=O)c2ccccc2F)o1)Nc1ccc2c(c1)OCCO2
5	0.1	CN1CCN(NC(=O)c2ccc(Cl)cc2)CC1
-5	·	Cc1ccc(-c2nnn(CCOc3ccccc3Cl)n2)cc1
27	·	CN=c1scc(-c2c(-c3ccccc3)n(C)c3ccccc23)n1C
6	-3.1	CCCOC(=O)c1ccc2c(c1)C(=O)N(c1ccccc1)C2=O

# Carrying on.
Sa helicase inh	MgrA DNA FP	SMILES
·	1.8	S=c1nc(CCCCc2nc(=S)[nH][nH]2)[nH][nH]1
-5	·	CC(=O)N1CCN(S(=O)(=O)c2cccc(C(=O)OCC(=O)N3N=C(c4ccc(C)cc4)CC3c3ccco3)c2)CC1 (stereo not given)
10	·	COc1ccccc1NC(=O)c1c(C)nc(SCC(=O)OC(C)C)c(C#N)c1-c1ccco1
6	2.7	CC1CCN(C(=O)Cn2cnc3c(cnn3-c3ccccc3)c2=O)CC1
6	-2.7	Cc1cccc(-n2[nH]nnc2=S)c1

# Compounds shown so far that contain two or more sulfur atoms (13):
Sa helicase inh	MgrA DNA FP	SMILES
·	-1.5	CCOC(=O)CC1=Nn2c(nnc2-c2cccs2)SC1
0	·	Cc1nnc(SCC(=O)Nc2sc3c(c2C(N)=O)CCC(C)C3)[nH]c1=O (stereo not given)
-9	-0.1	CCN(c1ccccc1)c1nc2ccsc2c(=O)s1
·	0.2	O=S(=O)(Cc1noc(-c2cccs2)n1)c1ccc(F)cc1
·	-3.0	Cc1nc(C)c(S(=O)(=O)NCc2ccc(-c3cccs3)cc2)s1
21	14	CSc1ccc(CNc2ccc(S(N)(=O)=O)cc2)cc1
3	·	Cc1csc(C(C#N)C(=O)CSc2nc(-c3ccccc3)c(-c3ccccc3)o2)n1 (stereo not given)
18	-4.7	Cc1nnc(SCC(=O)O)s1
13	·	CSc1sc(C(=O)NN=NC(C)C)c2c1C(O)CCC2 (stereo not given)
-7	·	Cc1nnc(SCC(=O)N2N=C3/C(=C/c4cccs4)CCCC3C2c2cccs2)n(N)c1=O (stereo not given)
7	·	O=C(OCc1csc(-c2ccccc2)n1)C1Cc2ccccc2CN1S(=O)(=O)c1cccs1 (stereo not given)
-1	0.6	O=S(=O)(c1ccc(NC(=S)Nc2ccc3c(c2)OCO3)cc1)N1CCOCC1
·	1.8	S=c1nc(CCCCc2nc(=S)[nH][nH]2)[nH][nH]1

# These rows are one share of the data (hit frequency here may not be typical).
